A1 inh: caspase 3/7 activation in MEF A1-2A-BIM cells, primary screen, A1 inhibitor project, cell-based, luminescence, HTS; Caspase-Glo 3/7 luminescence, 3 h; percent of clofoctol response, vehicle zero; actives 0.066% (n = 330,000); caspase activation, % (test concentration not listed);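 active = over half of replicate activation scores above 10%, or exactly half above 10 with the replicate mean above 10; inconclusive = replicate mean below 10 yet half the replicates above 10; inactive = over half of replicates below 10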;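 note: wells of about 30 µL received 50 nL stock; many hits fall short of the cut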
T cruzi inh: inhibitors of intracellular T. cruzi growth, primary screen, luminescence, NIH3T3 host cells. T. cruzi beta-gal in NIH3T3, 90 h. inhibition, % (test concentration not listed). actives 1.4% (n = 300,000). AID 1885, 2009;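 active = mean inhibition across valid replicates above about 55%, limit read from the data; inconclusive = mean below that limit but half or more replicates reach it; inactive = mean below it, under half of replicates reach it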;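 note: signal also drops with host cell toxicity which is not excluded here; 0% = plate median of DMSO wells and 100% = zero luminescence signal; higher percent means less beta-gal luminescence so fewer parasites; stock transfer was 50 nL into about 50 µL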
Vif A3G: inhibitors of Vif binding to APOBEC3G peptide, primary screen, biochemical, TR-FRET, GST-Vif 1-94, biotin-A3G peptide, dose response retest (AID 1117319); Virion infectivity factor (Human immunodeficiency virus type 1 group M subtype B (isolate …; TR-FRET GST-Vif / biotin-A3G peptide binding; higher % means a stronger effect; test concentration not given here; strong numbers were not always called active; inhibition, %; hits with a dose series show IC50 in µM; actives 0.57% (n = 260,000);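 active = above the screen mean plus three standard deviations and confirmed in dose response; inconclusive = results disagree or hit not tested in dose response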;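 note: Vif residues 1-94 fused to GST binding biotinylated APOBEC3G peptide 110-148; 0% = full assay without inhibitor and 100% = GST in place of GST-Vif; retest series ran down from 100 µM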
RanGTP-Impb inh: inhibitors of RanGTP-importin-beta interaction, primary screen, biochemical, FRET, CFP-Ran, YFP-importin-beta, homogeneous; cell-free CFP-Ran/YFP-importin-beta FRET ratio; inhibition, % (concentration not given with the values); actives 1.1% (n = 300,000); AID 2216, 2009;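 active = most replicates above 15%; inconclusive = exactly half above 15%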;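 note: 0% = DMSO wells and 100% = Ran loaded with GDP instead of GTP; wells of about 40 µL received 100 nL stock; the first replicate is given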
Beta apoptosis: inhibitors of cytokine-induced beta cell apoptosis, primary screen, luminescence; INS-1E cytokine-induced death, ATP luminescence, 48 h; percent of positive-control rescue, neutral wells zero; protection from apoptosis, % (test concentration not listed); actives 0.8% (n = 300,000); AID 435005, 2010;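 active = all replicates at 75% or more, or half of them and the mean; inconclusive = half reach 75% but not the mean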;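 note: 0% = cytokine-treated negative control wells and 100% = positive control rescue; higher means more ATP so stronger rescue from cytokine killing; wells of about 40 µL received 100 nL stock; the first replicate is given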
Calb FLC: C. albicans growth inhibition with fluconazole, primary screen, CaCi-2 strain, Alamar Blue fluorescence; C. albicans CaCi-2 (fluconazole-resistant clinical isolate) + fluconazole, 48 h; growth inhibition, % (no concentration beside the values); actives 0.57% (n = 300,000);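 active = most replicates above 75%; inconclusive = exactly half above 75%; inactive = most below 75%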;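 note: all wells also contain fluconazole at 8 µg/ml as a sub-toxic cotreatment; 0% = median of DMSO wells and 100% = median of geldanamycin control wells; wells of about 8 µL received 7.5 nL stock; the first replicate is given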
MLL AF4-AF9 inh: inhibitors of AF4 peptide binding to AF9, primary screen, biochemical, AlphaScreen, biotin-AF4 peptide, FLAG-AF9, single point. Protein AF-9 (Homo sapiens), P42568. inhibition, % at 10 µM. actives 0.47% (n = 350,000);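 active = every replicate reaching a set inhibition limit, whatever the replicate mean, cut at about 25% in these data; inconclusive = mean inhibition reaches that limit but some replicates miss it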;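 note: 0% = plate neutral control median and 100% = total signal loss; the record names both 10 and 1 µM as test concentration; the first replicate is given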
Target sequence (P42568 whole entry, looked up): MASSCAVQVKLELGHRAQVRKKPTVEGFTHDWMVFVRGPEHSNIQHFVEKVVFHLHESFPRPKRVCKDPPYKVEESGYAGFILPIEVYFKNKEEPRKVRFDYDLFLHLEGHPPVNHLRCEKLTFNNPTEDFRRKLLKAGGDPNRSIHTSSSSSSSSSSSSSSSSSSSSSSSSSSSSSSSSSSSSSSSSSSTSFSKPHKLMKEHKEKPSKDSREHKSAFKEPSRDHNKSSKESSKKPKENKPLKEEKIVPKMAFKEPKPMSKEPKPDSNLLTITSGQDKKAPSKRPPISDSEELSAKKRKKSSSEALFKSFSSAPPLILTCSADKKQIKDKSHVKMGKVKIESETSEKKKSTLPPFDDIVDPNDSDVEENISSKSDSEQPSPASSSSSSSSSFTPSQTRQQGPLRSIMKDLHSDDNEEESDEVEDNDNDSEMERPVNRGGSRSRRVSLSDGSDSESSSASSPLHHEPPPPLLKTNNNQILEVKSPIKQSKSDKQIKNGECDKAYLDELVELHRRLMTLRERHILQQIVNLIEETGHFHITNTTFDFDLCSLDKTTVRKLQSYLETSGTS
Ecoli rRNA inh: reduced GFP signal of wild-type E. coli, primary screen, bacterial rRNA inhibitor project, GFP/RFP fluorescence, OD600, single point; GFP signal change (wild-type ribosome), % (test concentration not listed); AID 720706, 2013; actives 1.6% (n = 350,000); E. coli WT GFP vs humanized-ribosome RFP mutants, 24 h; hits give low values; DMSO median 0, no signal -100;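 active = significant combined selectivity score with lowered wild-type GFP, culture density cut under 30%, mutant RFP and density less affected; inactive = any of these conditions unmet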; note: one replicate is shown; some compounds called inactive have numbers as strong as hits
Ecoli rRNA inh OD600: second read-out of Ecoli rRNA inh, no call of its own (marks repeat the call); OD600 change, %; measured here: OD600 growth;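 optical density of the mix in the first replicate; 0 = DMSO median and -100 = no signal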
Ecoli rRNA inh RFP: further read-out of Ecoli rRNA inh, marked with its call; RFP signal change, %; measured here: RFP humanized mutant strains;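 first replicate; 0 = DMSO median and -100 = no signal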
Starred values were filed as active, the others as inactive; ? = inconclusive; / = not tested or not shown; & = joins results of further samples. This is a subset; count on the stated rates, not on these rows.

SMILES	A1 inh	T cruzi inh	Vif A3G	RanGTP-Impb inh	Beta apoptosis	Calb FLC	MLL AF4-AF9 inh	Ecoli rRNA inh	Ecoli rRNA inh OD600	Ecoli rRNA inh RFP
O=C(c1ccc2c(c1)OCCO2)N1CCCC(CNS(=O)(=O)c2cccs2)C1 (stereo unspecified)	0.9	5.1	/	1.5	5.3	-5.1	-1.0	11.0	4.6	1.6
COc1ccc(CCNC(=O)c2cc(-c3ccccc3)c(N3CCOCC3)s2)cc1OC	-0.6	43.6	/	1.2	-9.6	18.7	2.7	-16.4	-26.9	-4.6
O=S(=O)(c1cccs1)N1CCN(c2ccc(O)cc2)CC1	1.6	2.6	/	-0.9	-2.5	-6.3	6.6	3.3	0.2	5.4
O=C(NC(=S)Nc1ccc(Cc2ccncc2)cc1)c1ccc(F)cc1	-1.1	12.1	2.7%	1.6	4.3	9.1	0.2	-7.8	-6.5	-3.2
Cc1cccc(CN2CCC(n3nccc3NC(=O)c3ccccc3C)CC2)n1	0.8	-3.6	-0.2%	-0.3	-2.7	-11.3	0.2	8.4	9.6	1.4
CN(C(=O)COC(=O)c1ccc(=O)n(Cc2ccccc2)n1)C1CCS(=O)(=O)C1 (stereo unspecified)	0.0	-7.3	4.0%	-2.7	-12.3	-0.4	0.2	2.8	4.8	0.5
O=C(NS(=O)(=O)c1ccc(Cl)s1)c1ccccc1	0.0	-0.4	-3.6%	-1.7	2.6	-2.3	2.7	4.9	4.3	2.3
Cn1c(SCC(=O)NNC(=O)Nc2ccccc2)nnc1-c1ccccc1	0.4	-5.5	10.4%	-2.9	-7.0	-3.3	15.1	12.1	1.6	1.3
Cc1ccc(S(=O)(=O)N2CCN(C(=O)c3nn(C(C)C)c(=O)c4ccccc34)CC2)cc1C	0.0	16.9	0.4%	-1.2	4.4	-13.7	/	/	/	/
Cc1oc2c(cc(NS(=O)(=O)c3ccc(C(C)C)cc3)c3ccccc32)c1C(=O)O	0.1	-24.0	/	-2.8	0.1	56.9	-3.0	-7.8	-12.0	0.5
O=C(CSc1cccc[n+]1[O-])C12CC3CC(CC(C3)C1)C2	-0.1	-21.8	3.0%	1.7	-2.1	0.1	-5.6	-27.2*	-21.0*	-7.4*
Cc1ccccc1OCc1nc(-c2ccc(Br)o2)no1	-0.7	-4.7	8.6%	-1.7	-7.5	-4.2	-0.3	-3.4	-5.0	1.9
CSc1c(CC(=O)Nc2ccc(F)cc2)n(Cc2ccccc2)c2ccccc12	0.5	29.9	13.5%	-2.2	4.5	0.7	-3.1	-2.0	8.8	1.6
O=C(O)c1ccc(NS(=O)(=O)c2ccc(N3C(=O)CCC3=O)cc2)cc1	0.1	2.1	/	1.2	-6.5	-1.8	-1.2	1.9	9.0	-0.2
O=C(Cn1c(=O)oc2cc(S(=O)(=O)N3CCCC3)ccc21)N1CCN(c2ccccn2)CC1	-0.9	-2.6	1.4%	-2.5	/	-3.0	-0.3	12.4	12.7	-0.2
Cc1ccc[n+](CC(=O)c2ccc(NC(=O)c3ccccc3)cc2)c1	-2.7	2.0	9.3%	/	1.5	-8.3	-0.3	13.0	11.0	3.5
Clc1ccc(SCCOCCN2CCCCCC2)cc1	0.0	46.4	0.1%	8.4	-1.6	-12.6	8.0	9.4	4.2	1.9
NC(=O)COc1ccccc1/C=C1/SC(=O)N(CC(=O)N2CCc3ccccc3C2)C1=O	-0.3	/	1.9%	5.8	-18.7	36.9	10.7	-26.4	-6.8	13.5
COC(=O)c1cc(S(=O)(=O)NCC2CCN(CCc3ccc(OC)cc3)CC2)cn1C	0.6	12.3	/	0.5	-3.3	-1.9	4.3	6.9	10.0	1.5
O=C(CNC(=O)c1ccc(Cl)cc1)N/N=C/c1cccnc1	-1.3	-19.8	-0.1%	-0.1	-6.1	-2.3	2.5	4.0	8.1	-1.2

Only Calb FLC (4 entries from above):
mol	Calb FLC
O=S(=O)(c1cccs1)N1CCN(c2ccc(O)cc2)CC1	-6.3
O=C(NC(=S)Nc1ccc(Cc2ccncc2)cc1)c1ccc(F)cc1	9.1
Cc1cccc(CN2CCC(n3nccc3NC(=O)c3ccccc3C)CC2)n1	-11.3
CN(C(=O)COC(=O)c1ccc(=O)n(Cc2ccccc2)n1)C1CCS(=O)(=O)C1 (stereo unspecified)	-0.4

More records.
SMILES	A1 inh	T cruzi inh	Vif A3G	RanGTP-Impb inh	Beta apoptosis	Calb FLC	MLL AF4-AF9 inh	Ecoli rRNA inh	Ecoli rRNA inh OD600	Ecoli rRNA inh RFP
CCOc1ccc(CNC(=O)CCS(=O)(=O)c2ccc3c(c2)NC(=O)CO3)cc1OC	0.5	1.2	6.0%	0.9	-3.8	-2.4	-2.5	2.3	5.8	-1.5
CCn1c(C)c(C)c2cc(C(=O)NC3CCCCCC3)ccc21	-0.7	16.6	-18.4%	0.3	5.7	-3.9	-4.2	5.3	8.6	4.2
COc1ccc(S(=O)(=O)Nc2ccc(C)cc2)cc1N(C)S(=O)(=O)c1ccc(Cl)cc1	-0.2	24.8	0.8%	-2.4	28.4	11.0	/	/	/	/
CC(=O)OCc1cc(-c2nn(C)c(=O)c3ccccc23)ccc1C	0.4	6.7	-6.1%	?	1.4	-2.6	1.5	17.6	7.3	0.3
CN(C)CC(=O)Nc1ccc2cn[nH]c2c1	-0.1	15.4	?	1.1	-3.9	-8.6	-1.2	16.8	18.6	-1.2
C=CCn1c(NC(=O)c2ccc(C)cc2)nc2ccccc21	0.7	61.3*	/	?	16.9	0.9	-1.6	3.7	-1.0	1.9
Cc1ccc(C(=O)O/N=C(\N)c2ccc(Br)cc2)cc1	-0.9	14.6	-3.3%	-4.5	-0.3	1.2	/	/	/	/
CCN(CC(=O)Nc1ccc(S(=O)(=O)N2CCCC2)cc1)CC(=O)Nc1ccccc1C(F)(F)F	0.3	/	/	/	16.0	/	-0.7	-6.5	-8.4	-1.5
O=C(CCCOc1ccc(Cl)cc1Cl)n1nnc2ccccc21	1.4	-1.7	/	0.8	-8.1	33.2	-4.4	-0.8	-1.1	3.6
OCCNCCOc1ccccc1-c1ccccc1	1.3	-11.0	6.4%	1.2	-3.5	2.3	/	/	/	/
COc1ccccc1OCCOCCOc1ccc(C)cc1[N+](=O)[O-]	0.0	1.1	/	-1.1	/	12.5	0.9	-26.9	-21.9	-2.9
C[C@@H]1C=C(C(=O)NCc2ccccc2)O[C@H](OCc2ccc(CO)cc2)C1	1.4	1.7	-2.5%	7.9	-3.9	-2.0	-7.3&-3.1	-8.3	4.0	-3.3
Nc1ccc2c(c1)N1CCN=C1S2	0.9	18.0	11.8%	-3.5	-1.8	7.2	/	/	/	/
CCOc1ccc(NC(=O)C2CCCN2C(=O)OCc2ccccc2)cc1 (stereo unspecified)	1.1	-5.8	12.1%	-2.3	-7.6	-6.9	1.5	-0.4	-5.7	-3.4
NC(=O)C1CCN(S(=O)(=O)c2ccccc2[N+](=O)[O-])CC1	0.2	0.3	/	-0.1	1.2	-2.2	-0.9	4.0	8.9	0.4
Cn1nccc1NS(=O)(=O)c1ccc(C(C)(C)C)cc1	0.1	-10.2	/	1.7	-4.7	10.1	0.8	13.4	10.6	-0.4
Cc1nc2n(n1)CC(O)CS2 (stereo unspecified)	1.1	-5.0	-2.7%	6.1	-5.1	-12.0	/	/	/	/
O=C(COc1ccc(Br)cc1CO)Nc1ccccc1	-0.2	-9.7	1.9%	4.3	-3.3	-3.6	/	/	/	/
CCOC(=O)c1[nH]c(C)c(C(=O)OCCN2C(=O)c3ccccc3C2=O)c1C	-0.2	-4.8	-6.8%	4.7	3.4	-12.5	/	/	/	/
COc1cc(/C=C/C(=O)OCC(=O)NC(=O)NC(C)C)ccc1OCC#N	-0.5	0.0	-4.8%	?	-5.5	32.7	/	/	/	/
COC(=O)c1sc2ncccc2c1OCc1cccc(Cl)c1	0.5	20.5	1.7%	1.0	-2.7	-10.4	/	/	/	/
CC1=C(C(=O)OCc2ccccc2)C(c2ccsc2)C(C#N)=C(N)O1 (stereo unspecified)	?	0.8	/	1.6	-8.1	9.4	/	/	/	/
Cc1cc(C)cc(OCC(=O)N2CCN(c3ncccn3)CC2)c1	0.6	/	-9.1%	/	1.2	/	-1.5	/	/	/
O=C(CN1CCCCCC1)N/N=C/c1ccc2ccccc2c1	0.0	5.1	-2.6%	0.1	-4.8	23.8	7.4	-0.2	6.3	-0.9
CC(Oc1ccc2c(c1)c1ccnc3c4ccccc4c(=O)n2c13)C(=O)NCCN1CCOCC1 (stereo unspecified)	0.3	40.4	/	9.4	3.9	1.9	/	/	/	/
C/C(=N\NC(=O)Nc1ccccc1)c1ccc2ccccc2c1	-0.3	3.8	-7.7%	0.6	-2.5	-9.0	/	/	/	/
Cc1nc(NCCc2ccccc2)c(C#N)c(C)c1[N+](=O)[O-]	-0.7	32.2	20.0%	-1.2	-8.1	-7.7	/	/	/	/
CN/C=C1\C(=O)C(C)(C)Oc2ccc3ccc(=O)oc3c21	-0.3	-15.2	3.7%	2.3	-0.4	-17.2	/	/	/	/
N#Cc1ccc(-c2nnnn2-c2ccc3c(c2)OCO3)cc1	0.7	-1.1	-0.5%	-5.4	2.0	-2.4	/	/	/	/
CC(=O)C1=C(O)C(=O)N(Cc2ccco2)C1c1ccccc1 (stereo unspecified)	-0.2	6.3	16.8%	3.0	-1.5	-6.0	-3.4	-5.5	-0.5	-0.6
CCOc1cccc(CN2CCC(n3nccc3NC(=O)C3CC3)CC2)c1O	0.0	5.6	25.6%	-2.2	/	-1.9	-0.5	6.2	10.0	2.6
COc1ccc(/C=C2\Sc3ccc(C(=O)NC4CC4)cc3N(C)C2=O)cc1OC	0.3	8.0	/	2.2	/	2.3	14.4	-21.1	-40.3	-3.5
CCN(CC(=O)Nc1c(F)cccc1F)C(=O)c1cn2ccccc2n1	0.0	/	-5.6%	/	-0.9	/	1.0	6.4	10.6	-1.1
Cc1nnc(SCC(=O)NCCOc2ccc(Cl)cc2)n1-c1ccccc1	0.6	-1.9	-1.5%	1.8	-4.4	-0.2	/	/	/	/
Oc1ccc(-c2nnc(Nc3ccccc3)c3ccccc23)cc1	0.2	9.4	2.4%	-2.6	9.3	4.1	10.4	-6.8	2.0	8.6
